# LASV entry inh: inhibitors of Lassa virus binding or cell entry; Lassa virus pseudotype entry inhibition, cell reporter; control for the full effect not named in the record; Potency, µM (series often up to 37.9 µM), inactives show top-dose activity change, negative = inhibition, most hits filed as inhibitors; 300,000 compounds, 1.2% hits; AID 540256; active means well fitted inhibition curve with a large enough effect; inconclusive means small, poorly fitted or top-dose-only effect, or effect the other way; inactive means flat fitted curve, though single readings scatter; tested in HEK293 cells; also: % is scaled to controls: 0 for no effect and ±100 for the full control effect; nearly all actives have a fitted effect of over 50% in size; luciferase read-out
# StopGo reporter: lowers the luciferase signal of an FMDV 2A StopGo reporter; human cells with a luciferase reporter of 2A StopGo recoding; control for the full effect not named in the record; Potency, µM (highest dose often 57.9 µM), without a hit: at the highest dose signal change, negative = less light; 410,000 compounds, 1.2% hits; active = well fitted falling curve with a large enough effect; inconclusive = small, poorly fitted or top-dose-only effect; inactive = no such curve, though single readings can be large or run the other way; tested in HEK293T cells; also: % is scaled to controls: 0 for no effect and ±100 for the full control effect; nearly all actives have a fitted effect of over 45% in size; luciferase light after 4 h
# Cruzain Triton: cruzain (T. cruzi) inhibition with detergent; Potency, µM, inactives show max response, negative = inhibition, hits mostly inhibitors; purified cruzain, Z-FR-AMC fluorescence, 0.01% Triton; 200,000 compounds, 0.43% hits;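 also: plate controls were neutral wells for no effect and buffer without enzyme for full effect; nearly all actives have a fitted effect of over 40% in size; top concentration of the series not given in the record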
# Target sequence (P25779 123-467 limits assumed): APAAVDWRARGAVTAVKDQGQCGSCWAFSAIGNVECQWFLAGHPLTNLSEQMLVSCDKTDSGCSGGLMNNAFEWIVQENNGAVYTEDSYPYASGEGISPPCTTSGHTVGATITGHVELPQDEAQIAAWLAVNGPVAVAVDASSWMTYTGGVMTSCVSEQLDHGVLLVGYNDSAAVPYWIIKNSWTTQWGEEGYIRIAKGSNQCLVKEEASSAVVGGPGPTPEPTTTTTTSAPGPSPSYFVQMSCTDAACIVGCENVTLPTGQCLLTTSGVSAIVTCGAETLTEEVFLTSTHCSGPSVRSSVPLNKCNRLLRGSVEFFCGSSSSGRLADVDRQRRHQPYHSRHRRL
#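 Purified cruzain (1.5 nM final) was preincubated with compounds for 15 min at room temperature in 100 mM sodium acetate pH 5.5, 5 mM DTT, 0.01% Triton X-100. Reaction started with 2 uM Z-FR-AMC; AMC fluorescence change over 60 s gave activity.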
# Cruzain inh noDet: inhibitors of Trypanosoma cruzi cruzain without detergent. P25779. purified cruzain, Z-FR-AMC fluorescence, no detergent. Potency, µM, inactives show max response, negative = inhibition, hits mostly inhibitors. 200,000 compounds, 2.3% hits. AID 1476;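 also: plate controls were enzyme without inhibitor for no effect and buffer without enzyme for full effect; nearly all actives have a fitted effect of over 40% in size; top concentration of the series not given in the record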
#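 Purified cruzain at 1.5 nM, pre-incubated 15 min with compound at room temperature in 100 mM sodium acetate pH 5.5, 5 mM DTT, 0.00005% Triton X-100. Reaction started with 2 uM Z-FR-AMC; AMC fluorescence increase over 60 s gives rate.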
# NS1 inh: influenza NS1 inhibition; S. cerevisiae slowed by influenza A NS1, growth recovery by OD600; 270,000 compounds, 0.4% hits; Potency, µM (series often up to 46.1 µM), for inactives: at the highest dose activity, positive = more growth; active means well fitted rising curve with a large enough effect; inconclusive means small, poorly fitted or top-dose-only effect; inactive means no such curve, though single readings can be large or run the other way; also: nearly all actives have a fitted effect of over 50% in size
#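 Compounds were scored for reversing the slow growth caused by influenza A NS1 in S. cerevisiae, measured by optical density at 600 nm. Assay medium contained 2% galactose at pH 6.0; NS1-free yeast of the same strain were the positive control.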
# MARV entry inh: blocks Marburg virus binding to or entry into cells; 300,000 compounds, 1.8% hits; Marburg virus pseudotyped entry inhibition, cell reporter; control for the full effect not named in the record; about a third of the inactives were read at about 46 µM; AID 540276; Potency, µM (highest dose often 37.8 µM), for the others: at the top dose activity change, negative = inhibition, hits mostly inhibitors; active = well fitted inhibition curve with a large enough effect; inconclusive = small, poorly fitted or top-dose-only effect, or effect the other way; inactive = flat fitted curve, though single readings scatter; tested in HEK293 cells; about a fifth of its hits are not listed in these tables; also: % is scaled to controls: 0 for no effect and ±100 for the full control effect; luciferase read-out
# SARS PLP yeast: SARS-CoV PLP inhibition in yeast. S. cerevisiae expressing SARS-CoV PLpro, growth rescue; control for the full effect not named in the record. Potency, µM (doses to about 32.9 µM), for inactives: at the top dose activity, positive = growth rescue. 330,000 compounds, 0.19% hits; active means well fitted rising curve with a large enough effect; inconclusive means small, poorly fitted or top-dose-only effect; inactive means no such curve, though single readings can be large or run the other way; also: 0% is about no effect; nearly all actives have a fitted effect of over 55% in size; growth read by luminescence after 48 h
# RE007 growth inh: less growth of the S. pombe RE007 Vpr strain; 360,000 compounds, 0.21% hits; AID 651644; Potency, µM (series often up to 92.2 µM), without a hit: at the top dose activity change, negative = less growth; S. pombe RE007 Vpr strain, BacTiter-Glo ATP luminescence, 24 h; control for the full effect not named in the record; active = well fitted falling curve with a large enough effect; inconclusive = small, poorly fitted or top-dose-only effect; inactive = no such curve, though single readings can be large or run the other way;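 also: % is scaled to controls: 0 for no effect and ±100 for the full control effect; nearly all actives have a fitted effect of over 50% in size; the assay follows cell death caused by Vpr and the record does not say whether a fall means rescue or toxicity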
#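 Fission yeast RE007 carrying one integrated HIV-1 vpr copy, seeded at OD 0.01 in PMG+AL medium with 23 nL pinned compound. Grown 24 h at 30 degrees; viability read by BacTiter-Glo luminescence after 5 min.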
# Numbers without * were called inactive; ? = inconclusive; · = not tested or not shown; [ ] = another dose, or the depositor's remark. Unless noted, calls follow the shape of the dose curve; as a rule, active = well fitted curve in the direction sought with a large enough effect; inconclusive = small, poorly fitted or top-dose-only effect, or another doubt; inactive = no such curve, though single readings can be large; an effect the other way counts as inactive or inconclusive. Potency is read from the fitted curve at half-maximal effect.
SMILES,LASV entry inh,StopGo reporter,Cruzain Triton,Cruzain inh noDet,NS1 inh,MARV entry inh,SARS PLP yeast,RE007 growth inh
O=C(COc1ccc(Cl)cc1)NCCSc1ccccc1,3%,13%,-5.1%,17%,-18%,26%,-6%,-22%
Cc1cc(/C=N/NC(N)=S)c(O)c(/C=N/NC(N)=S)c1,-16%,-8%,·,·,-2%,-5%,1%,-11%
Cc1ccccc1C(=O)NC(=O)Nc1ccc(-n2nc(C(F)(F)F)cc2C(F)(F)F)cc1,25%[46.1 µM],0%,0.0%,5%,·,-24%[46.1 µM],·,·
COCCN1C(=O)C(=O)/C(=C(/O)c2ccc(S(=O)(=O)N3CCOCC3)cc2)C1c1cccc([N+](=O)[O-])c1 (stereo unspecified),·,-9%,·,·,3%,·,10%,8%
CCN(CC)C(=O)C(=O)N/N=C/c1ccc(C(=O)O)cc1,-1%,-16%,1.8%,-1%,5%,24%,1%,-12%
CCCCCn1c(=O)c(C(=O)NCc2ccccc2Cl)c(O)c2ccccc21,·,-28%,·,·,10%,·,6%,-10%
O=C(CN1CCCCCC1)Nc1ccccc1C(=O)Nc1ccccc1,14%,-13%,·,·,·,-1%,15%,-10%
COC1(OC)N=C(N)C2(C#N)C(c3cccc(Oc4ccccc4)c3)C12C#N (stereo unspecified),-14%,-10%,-0.7%,13%,?,-19%,7%,9%
CCCCNS(=O)(=O)c1ccc2nc(SCC(=O)Nc3sccc3C#N)[nH]c2c1,-9%,-81%,-13%,?,2%,?,0%,38%
CC(Oc1ccccc1)C(=O)Nc1nc2c(s1)C(=O)CC(C)(C)C2 (stereo unspecified),-11%,-2%,-3.7%,-7%,-2%,9%,4%,-4%
CC1C(=O)N2CCCc3cc(S(=O)(=O)NCc4ccccc4Cl)cc1c32 (stereo unspecified),·,24%,·,·,9%,·,-1%,-5%
Cc1ccccc1CNC(=O)c1oc2c(c1C)-c1[nH]ncc1CC2,17%[46.1 µM],20%,-6.3%,-2%,·,13%[46.1 µM],·,·
COc1ccc(N(C(=O)C(C)C)S(=O)(=O)c2ccc3c(c2)n(C)c(=O)n3C)cc1,-20%,-19%,2.0%,?,-22%,-12%,?,3%
COC(=O)c1ccccc1NC(=O)c1cc(C)nc2c1c(C)nn2-c1ccc(C)cc1,22%[46.1 µM],-1%,0.4%,3%,·,·,·,·
Cc1ccc2nc(Cl)c3cc(C(=O)NCCCN4CCCC4)sc3c2c1,-18%[46.1 µM],-2%,·,·,·,10µM*,2%,-14%
Cn1c(NC(=O)c2ccc3c(c2)OCO3)cc(=O)n(C)c1=O,·,-6%,-4.7%,1%,-57%,·,12%,-6%
CCCCn1c(N)c(N(CC)C(=O)c2ccc(N3CCCC3=O)cc2)c(=O)[nH]c1=O,-4%,6%,·,·,·,11%[46.1 µM],-4%,-2%
O=C(Nc1ccc(Cl)cc1)Nc1ccccc1C(=O)O,?,-77%,·,·,-5%,?,0%,?
CCOC(=O)Nc1ccc2c(c1)N(C(=O)C(C)N1CCCC1)c1ccccc1CC2 (stereo unspecified),-4%,·,5.9%,-7%,-2%,-18%,2%,9%
CCOC(=O)Cn1nnnc1C(C(C)C)N(Cc1cccs1)Cc1cc2cc(C)ccc2[nH]c1=O (stereo unspecified),?,?,-7.7%,?,26%,9.2µM*,5%,-2%[3.69 µM]
O=C(Nc1ccc(F)c(F)c1)c1cc(S(=O)(=O)NC2CCCC2)ccc1F,?,9%,0.2%,-6%,·,·,·,·
COC(=O)c1ccc(NC(=O)CSc2n[nH]c(-c3ccncc3)n2)cc1,8%,-4%,5.0%,-7%,-9%,-12%[46.1 µM],0%,-7%
CN(C)c1ccc(/C=N/n2ncc3ccccc32)cc1,13µM*,·,3.2%,-7%,-10%,10µM*,6%,-24%
CCCNC(=O)Nc1ccccc1SC,·,7%,·,·,0%,·,0%,3%
COc1ccccc1CNS(=O)(=O)c1c(C)[nH]c(C)c1C(=O)N1CCCCC1,-6%[46.1 µM],8%,·,·,-9%,0%[46.1 µM],-7%,-1%
# Continued:
SMILES,LASV entry inh,StopGo reporter,Cruzain Triton,Cruzain inh noDet,NS1 inh,MARV entry inh,SARS PLP yeast,RE007 growth inh
COc1cccc(NC(=O)CN(C)C(=O)C2CCN(C(=O)c3ccccc3C)CC2)c1,?,-8%,·,·,·,14%,1%,-14%
COc1cc(C2C(C(=O)c3ccco3)=C(O)C(=O)N2CC2CCCO2)ccc1O (stereo unspecified),1%,-2%,·,·,13%,13%,4%,-4%
O=C1c2ccccc2-c2cccc(C(=O)N3CCCCC3)c21,10%[46.1 µM],6%,·,·,-3%,-1%[46.1 µM],1%,-8%
O=C(CN(c1ccccc1F)S(=O)(=O)c1ccccc1)NC1CCCCCC1,-13%,-10%,-2.4%,-1%,-12%,-14%,4%,2%
COc1ccc(S(=O)(=O)N2CCN(C)CC2c2ccccc2)cc1OC (stereo unspecified),-1%,-22%,·,·,·,18%,8%,-28%
COc1ccc(Nc2ncnc3onc(-c4ccc(Cl)cc4)c23)cc1Cl,13µM*,?,-12%,-5%,·,7.1µM*,·,·
CC(=O)N(Cc1cccs1)C1CCOC(C)(C)C1 (stereo unspecified),7%,-12%,5.7%,-2%,17%,-15%[46.1 µM],·,2%
COc1ccccc1N1CCN(C(=O)Cn2nc(C(F)(F)F)c3c2CCC3)CC1,9%,?,-0.3%,?,4%,-9%,1%,-12%
COc1ccc(-c2nc3c4ccccc4[nH]c(=O)n3n2)cc1,10%,31%[activator],6.2%,-5%,-10%,?,·,-5%
CN(c1ccccc1)S(=O)(=O)c1ccc(NC(=O)C2CCCCC2C(=O)O)cc1 (stereo unspecified),0%,-18%,7.9%,4%,4%,9%,-3%,20%
CCCN(CC(=O)Nc1ccccc1C)C(=O)/C=C/c1ccc(S(=O)(=O)N2CCCCCC2)cc1,-24%,0%,·,·,·,11µM*,-1%,-3%
COc1ccc(OC)c(Nc2ncnc3c2cnn3-c2cccc(C)c2)c1,?,15%,-9.9%,?,-39%,?,-61%,7%
CCOc1ccc(S(=O)(=O)/N=C(/Nc2ccc(C(C)=O)cc2)c2ccccc2)cc1,?,26%,·,·,·,?,-9%,1%
CC(Nc1ccccc1)c1cccnc1 (stereo unspecified),·,0%,·,·,1%,·,1%,-18%
Cc1noc(C)c1COc1ccc(C(=O)N2CCCC(C(N)=O)C2)cc1 (stereo unspecified),·,0%,·,·,11%,·,4%,-13%
CN1C(=O)/C(=C/c2cccc([N+](=O)[O-])c2)C(=O)N1c1ccccc1,?,32µM*,·,·,21%,13%,2%,-12%
COc1ccc(N2CCN(C(CNC(=O)C(=O)NC3CCCC3)c3ccco3)CC2)cc1 (stereo unspecified),-24%,-9%,·,·,·,5%,-5%,-10%
COc1cccc(C(=O)/C=C/Nc2ccc(S(=O)(=O)Nc3cc(OC)nc(OC)n3)cc2)c1,10%,13%,·,·,1%,-1%[46.1 µM],·,-7%
Clc1ccccc1CN(Cc1ccccc1)c1ncnc2nc[nH]c12,?,?,-5.3%,15%,-4%,?,-26%,4%
Nc1nc(SCc2ccc(Cl)cc2)ns1,14%,26%,0.2%,4%,-67%,3%,-8%,-12%
COC(=O)c1ccc(COC(=O)C2CCN(S(=O)(=O)c3ccccc3C(=O)OC)CC2)cc1,12%,-24%,·,·,·,3%,-5%,-17%
CN(C(=O)COC(=O)c1c2c(nc3ccccc13)CCCC2)c1c(N)n(Cc2ccccc2)c(=O)[nH]c1=O,?,-16%,·,·,·,?,-10%,-17%
CC(C)[C@H](NC(=O)NC1CCCc2ccccc21)C(=O)O (stereo partly specified),7%,·,-5.2%,-4%,3%,19%,-2%,-12%
CC1Cc2cc(-c3csc(NC(=O)CCl)n3)ccc2N1C(=O)C1CC1 (stereo unspecified),-5%,45%[activator],·,·,·,3%[46.1 µM],·,3%
CN(C)C(=O)NC(Nc1ccc(Cl)cc1Cl)C(Cl)(Cl)Cl (stereo unspecified),-11%,·,-5.0%,-8%,-16%,-11%,-12%,-2%

# In a second layout: results already given.
# Each structure is followed by: LASV entry inh	StopGo reporter	Cruzain Triton	Cruzain inh noDet	NS1 inh	MARV entry inh	SARS PLP yeast	RE007 growth inh
COc1ccccc1N1CCN(C(=O)Cn2nc(C(F)(F)F)c3c2CCC3)CC1
→ 9%	?	-0.3%	?	4%	-9%	1%	-12%
O=C(CN(c1ccccc1F)S(=O)(=O)c1ccccc1)NC1CCCCCC1
→ -13%	-10%	-2.4%	-1%	-12%	-14%	4%	2%

# (continued)
SMILES,LASV entry inh,StopGo reporter,Cruzain Triton,Cruzain inh noDet,NS1 inh,MARV entry inh,SARS PLP yeast,RE007 growth inh
CCCCc1ccc(NC(=O)CN2NS(=O)(=O)c3ccccc3C2=O)cc1,-26%,-8%,-11%,-19%,-8%,0%,-3%,24%
CCCCN(Cc1ccccc1)S(=O)(=O)c1cc(Br)cc2c1N(C(=O)C1CC1)CC2,2%[46.1 µM],28%,-4.0%,-2%,·,-28%[46.1 µM],·,·
CCc1cccc2c(C(=S)N3CCCC3)c[nH]c12,·,31%[activator],·,·,3%,·,0%,7%
Cc1ccc(C(=O)Nc2cc(C)c(OCC(=O)N3CCOCC3)c(C)c2)cc1,-24%,-5%,2.2%,0%,-5%,?,1%,8%
Cc1nnsc1S(=O)c1ccc(Cl)cc1 (stereo unspecified),·,-22%,·,·,4%,·,2%,-2%
O=C(O)CC1(CC(=O)NCc2csc(-c3cccs3)n2)CCCCC1,·,35%[activator],·,·,1%,·,0%,-10%
CC(C)c1ccc(Nc2cnn(C34CC5CC(CC(CC(=O)O)(C5)C3)C4)c(=O)c2Cl)cc1,6%,·,-3.3%,7%,2%,1%,-8%,8%
COc1ccc(NC(=O)N2CCC(n3nnc4cc(C)ccc43)CC2)cc1,?,-7%,-4.4%,6%,0%,1%,?,1%
COc1ccc(C(CC(=O)N2CCCCC2)C(C)C)cc1 (stereo unspecified),?,-11%,·,·,4%,2%[46.1 µM],0%,-1%
Cc1cc(=O)oc2cc(OCC(=O)OCC(=O)N(C)C3CCS(=O)(=O)C3)ccc12 (stereo unspecified),-27%,-9%,·,·,4%,-4%,0%,0%

# Assay outcomes (PubChem)
